YopH inh: inhibitors of Yersinia enterocolitica YopH tyrosine phosphatase | fluorescence Ex485/Em525 | inhibition, %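 (about 10 µM by stock and volumes)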 | 0.16% of 140,000 active | AID 898;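 active means inhibition of 50% or more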;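 further: controls were vehicle for no effect and minimum signal wells for full effect; inactives centre near -20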
Arbovirus anti: antivirals against arbovirus infection | arbovirus infection cell-based antiviral screen | inhibition, % at 10 µM | 0.37% of 200,000 active | AID 1251;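 active means inhibition from about 30%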;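 further: bluetongue infection of BSR cells; cell survival read as ATP light after 72 h; 0% = infected wells without compound and 100% = uninfected wells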
RecA intein inh: inhibitors of M. tuberculosis RecA intein splicing. P9WHJ3. cell-free RecA intein splicing, fluorescence. inhibition, %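 (about 9 µM by stock and volumes)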. 0.75% of 290,000 active. AID 2221; in the data active means inhibition above about 30%;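 further: 0% = vehicle wells and 100% = reference inhibitor control wells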
Target sequence (P9WHJ3 whole entry, looked up): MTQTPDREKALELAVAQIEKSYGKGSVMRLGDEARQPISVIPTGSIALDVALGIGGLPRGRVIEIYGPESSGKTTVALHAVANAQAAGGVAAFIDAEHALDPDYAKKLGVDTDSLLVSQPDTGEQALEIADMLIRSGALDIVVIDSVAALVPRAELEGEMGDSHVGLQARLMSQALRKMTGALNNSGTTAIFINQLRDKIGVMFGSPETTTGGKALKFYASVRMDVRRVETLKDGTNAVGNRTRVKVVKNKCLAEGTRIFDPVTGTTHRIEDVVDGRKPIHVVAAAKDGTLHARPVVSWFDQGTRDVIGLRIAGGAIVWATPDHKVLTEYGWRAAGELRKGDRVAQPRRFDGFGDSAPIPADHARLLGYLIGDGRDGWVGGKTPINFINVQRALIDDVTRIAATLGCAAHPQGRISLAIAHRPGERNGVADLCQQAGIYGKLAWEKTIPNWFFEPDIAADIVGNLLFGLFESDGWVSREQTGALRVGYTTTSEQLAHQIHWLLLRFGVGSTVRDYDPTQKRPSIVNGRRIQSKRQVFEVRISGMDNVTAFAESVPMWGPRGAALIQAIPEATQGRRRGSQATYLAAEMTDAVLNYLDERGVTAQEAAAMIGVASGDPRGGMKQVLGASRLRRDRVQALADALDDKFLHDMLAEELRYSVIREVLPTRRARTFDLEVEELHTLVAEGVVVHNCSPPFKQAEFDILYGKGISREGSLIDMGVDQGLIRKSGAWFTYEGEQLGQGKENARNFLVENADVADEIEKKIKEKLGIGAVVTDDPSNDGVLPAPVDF
Mtb bLac sens: beta-lactam sensitization of Mtb H37Rv. M. tuberculosis H37Rv growth with meropenem, percent inhibition; hits of this screen are not shown here. 0.27% of 330,000 active. inhibition, % at 25 µM;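 active means about 74% or more and at least 40 points above the plate without the antibiotic, then above 30% in a dose series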;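 further: growth measured after seven days incubation then overnight dye step; 0% = bacteria only wells and 100% = bacteria with antibiotic; twin plates without the antibiotic show which effects depend on it; some results filed as inactive read as strong as hits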
Mtb growth: M. tuberculosis H37Rv growth inhibitors, H37Rv strain (AID 1626); M. tuberculosis H37Rv growth inhibition; higher % means a stronger effect; inhibition, % at 10 µM, or IC50 in µM where a hit was titrated; 0.95% of 220,000 active;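 active means confirmed in a dose series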;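 further: bacteria incubated seven days before Alamar blue readout; 0% = bacteria only wells and 100% = bacteria with antibiotic wells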
Arbovirus anti repeat: also measured in Arbovirus anti; calls as there; inhibition, %; measured here: 10K subset replicate screen; many hits read low in the repeat;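 first of two repeat runs on a subset; 0% = infected and 100% = uninfected wells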
Numbers without * were called inactive; nt = not tested or not shown.

SMILES | YopH inh | Arbovirus anti | RecA intein inh | Mtb bLac sens | Mtb growth | others
CC(C(=O)NC(=O)NC1CCCCC1)N1CCN(C(c2ccccc2)c2ccccc2)CC1 (configuration not stated) | -9 | -20 | 14 | 28 | nt
CCOC(=O)c1c(C)c(C(=O)Nc2ccc(F)cc2)c(C)n1C | nt | 1 | -2.5 | 0 | 6%
CC1CN(C(=O)c2ccc(C(=O)c3ccccc3)cc2)CC(C)O1 (configuration not stated) | -48 | 3 | 0.8 | -5 | -4%
CCOC(=O)c1sc2nc(CC(=O)OC)nc(N3CCN(c4ccc(OC)cc4)CC3)c2c1C | -13 | 4 | 4.7 | 50 | 2%
COc1ccc(C2=C(CC(=O)O)C(=O)CC2)cc1 | -56 | -6 | -1.4 | 9 | 8%
CCCN1C2CCCC1CC(NC(=O)C1CCCCC1)C2 (configuration not stated) | -21 | -2 | -0.2 | 9 | -3%
CC(C)N1CCC(N2CCN(C3CCCCCC3)CC2CCO)CC1 (configuration not stated) | nt | -5 | nt | -10 | -1%
Cc1ccc(CNC(=O)c2cc(-c3ccccc3)nn2Cc2cc(C)no2)cc1 | nt | nt | 2.2 | -7 | nt
CCCc1cc(=O)[nH]c(Nc2ccc(OC)c(Cl)c2)n1 | 0 | 11 | -0.9 | 0 | 0%
CC1CN(C(=O)CSc2cn(CC(=O)N3CCOCC3)c3ccccc23)CC(C)O1 (configuration not stated) | nt | nt | 0.4 | 2 | nt
COc1ccc(S(=O)(=O)NC(C)C(=O)N2CCCC2)cc1Cl (configuration not stated) | nt | nt | -1.0 | -1 | nt
O=C1N=C(N2CCCC2)S/C1=C\c1cccc(Br)c1 | -15 | 10 | 4.0 | nt | -4%
O=C(NCC(=O)N1CCCC(C(F)(F)F)C1)c1ccc2ccccc2c1 (configuration not stated) | nt | nt | -5.0 | -6 | nt
CN1CCc2nc(SCC(=O)Nc3cccc(F)c3)c(C#N)c(-c3cccs3)c2C1 | -25 | 1 | 29 | 6 | -6%
O=C(Nc1ccc(Oc2cccnc2)cc1)c1ccccc1Cl | -8 | -5 | -1.7 | -3 | -3%
CCCCCCSc1nnc(-c2cnn(-c3ccccc3)c2-n2cccc2)n1C | -1 | -37 | 7.1 | -14 | 9%
CN(C)c1nc(OCCNC(=O)COc2ccc(Cl)cc2Cl)nc(N(C)C)n1 | -10 | 8 | 6.5 | -10 | -7%
Cc1ccc(-c2nn3nnnc3c3ccccc23)cc1 | -44 | -11 | -3.4 | 4 | -3%
COc1ccccc1NS(=O)(=O)c1ccc(O)cc1 | -17 | 2 | 5.8 | -4 | 0%
CCN(c1cccc(C)c1)S(=O)(=O)c1csc(C(N)=O)c1 | nt | nt | -3.6 | 4 | nt
O=C(Cc1ccccc1)NCCSC1CCCCC1 | nt | 0 | 0.0 | 0 | 4%
COc1ccc(NC(=O)C2CC(=O)N(CCc3ccc(Cl)cc3)C2)cc1 (configuration not stated) | nt | nt | -3.2 | 58 | nt
CCCNC(=O)C1(O)c2cc(Br)ccc2NC(=O)N1c1ccc(Cl)cc1 (configuration not stated) | nt | nt | 1.7 | 4 | nt
COCCCNC(=O)CC(C)c1ccccc1 (configuration not stated) | 14 | 7 | 0.6 | -4 | -6%
Oc1ccc(CNCC2COc3ccccc3O2)cc1 (configuration not stated) | 2 | 12 | 0.7 | -3 | 4%
CCCn1c(Nc2ccccc2)nc2ccccc21 | -22 | -2 | -2.0 | -4 | -1%
Cc1cc(N2CCCCC2C)nc(-c2ccccc2O)n1 (configuration not stated) | nt | nt | 15 | 68 | -1%
COc1cc(/C=C/[N+](=O)[O-])ccc1OC(=O)c1cccnc1 | nt | nt | -1.7 | 64 | nt
Cc1cc(C)cc(NC(=O)COC(=O)CCCNC(=O)c2ccc(Cl)cc2)c1 | -27 | 2 | 0.2 | -1 | 6%
CN(CCc1ccccn1)C(=O)Nc1cccc(Cl)c1 | nt | nt | 1.4 | 0 | -10%
CCOC(=O)c1cc(C)sc1N1C(=O)C2C3C=CC(C3)C2C1=O (configuration not stated) | -5 | 8 | -2.9 | -9 | -3%
COc1ccc(/C(O)=C/C(=O)C(=O)NNC(=O)C(O)(c2ccccc2)c2ccccc2)cc1 | -1 | 0 | -0.8 | 91 | -9%
Cc1cccc(CN2C(=O)CCSc3ccc(Cl)cc32)c1 | -18 | 1 | 3.1 | 3 | 11%
O=C(CCc1ccccc1)NNC(=O)c1ccc(NC(=O)c2ccccc2)cc1 | -6 | -9 | 5.4 | -8 | 5%
Cc1ccc(C2=NC3(CCCCC3)NC2=S)cc1 | -28 | 6 | -0.3 | 2 | -7%
CN1OC(COC(=O)c2ccccc2)CC1c1ccccc1 (configuration not stated) | -21 | 6 | -0.6 | 34 | 21%
CC(=O)Nc1ccc(CN2CCCCCC2)cc1 | nt | nt | 2.5 | 4 | nt
Cc1ccc(O/C=C2\OC(=O)c3ccccc32)cc1 | -6 | 2 | 1.8 | -1 | 4%
CCOC(=O)C1CCCN(C(=O)c2cccc(S(=O)(=O)N(Cc3ccccc3)c3ccccc3OC)c2)C1 (configuration not stated) | nt | nt | 11 | 3 | nt
O=C(Cn1nc(Br)nc1Br)c1ccccc1 | nt | nt | -0.9 | -4 | nt
COc1cccc2c(N/N=C/c3ccccc3)cc(C)nc12 | nt | nt | 1.2 | -2 | nt
Cc1ccc(NS(=O)(=O)c2ccc(N/N=C/c3ccccc3OCC(=O)O)c([N+](=O)[O-])c2)c(C)c1 | nt | nt | 3.5 | -3 | -4%
CC(NC(=S)NCc1ccccc1)C12CC3CC(CC(C3)C1)C2 (configuration not stated) | nt | 6 | 3.2 | 0 | 3%
CCc1ccc(NC(=O)CCS(=O)(=O)c2cccc3nsnc23)cc1 | -11 | 5 | 4.2 | -14 | -4%
COc1ccc(-c2ccc(Nc3ccc(S(=O)(=O)N4CCCC4)cc3)nn2)cc1OC | -25 | 4 | -1.1 | 3 | -6%
Cn1c(C(=O)N2CCN(c3ccccn3)CC2)cc2ccccc21 | nt | nt | -2.0 | 2 | nt
C=C1C2[C@H](OC(C)=O)[C@@H]3CC(=O)[C@]4(C)OC[C@@]3(C)[C@@]4(O)[C@@H](OC(C)=O)[C@H](OC(C)=O)[C@@]2(COC(=O)c2ccccc2)[C@@H](OC(C)=O)C[C@@H]1O (some centres not stated) | nt | nt | -3.3 | -3 | nt
COC(=O)CN=Cc1c(C)[nH]n(-c2ccccc2)c1=O | nt | -1 | 3.4 | 0 | -4%

Grouped by structure, the entries above containing a Cl atom
SMILES | YopH inh | Arbovirus anti | RecA intein inh | Mtb bLac sens | Mtb growth | others
CCCc1cc(=O)[nH]c(Nc2ccc(OC)c(Cl)c2)n1 | 0 | 11 | -0.9 | 0 | 0%
COc1ccc(S(=O)(=O)NC(C)C(=O)N2CCCC2)cc1Cl (configuration not stated) | nt | nt | -1.0 | -1 | nt
O=C(Nc1ccc(Oc2cccnc2)cc1)c1ccccc1Cl | -8 | -5 | -1.7 | -3 | -3%
CN(C)c1nc(OCCNC(=O)COc2ccc(Cl)cc2Cl)nc(N(C)C)n1 | -10 | 8 | 6.5 | -10 | -7%
COc1ccc(NC(=O)C2CC(=O)N(CCc3ccc(Cl)cc3)C2)cc1 (configuration not stated) | nt | nt | -3.2 | 58 | nt
CCCNC(=O)C1(O)c2cc(Br)ccc2NC(=O)N1c1ccc(Cl)cc1 (configuration not stated) | nt | nt | 1.7 | 4 | nt
Cc1cc(C)cc(NC(=O)COC(=O)CCCNC(=O)c2ccc(Cl)cc2)c1 | -27 | 2 | 0.2 | -1 | 6%
CN(CCc1ccccn1)C(=O)Nc1cccc(Cl)c1 | nt | nt | 1.4 | 0 | -10%
Cc1cccc(CN2C(=O)CCSc3ccc(Cl)cc32)c1 | -18 | 1 | 3.1 | 3 | 11%

The list goes on:
SMILES | YopH inh | Arbovirus anti | RecA intein inh | Mtb bLac sens | Mtb growth | others
COc1ccc(C2C(C(=O)Nc3cccnc3)=C(C)Nc3nc(-c4cccs4)nn32)cc1 (configuration not stated) | 25 | 3 | 1.9 | -2 | -5%
COc1cccc(C(=O)N2CCCC(CCC(=O)NCc3ccc(F)c(F)c3)C2)c1 (configuration not stated) | nt | 6 | 3.2 | 14 | 4%
COc1ccc(N2C(=O)C3CCCN3C2c2cccc(C)c2)cc1 (configuration not stated) | -15 | 5 | -0.2 | 0 | -10% | Arbovirus anti repeat=2
COc1ccc(CCNC(=O)c2cc(=O)[nH]c3ccccc23)cc1 | nt | nt | -1.5 | -2 | nt
CCCCCC(=O)Nc1cccc(C2=NOC3(C2)C[C@H](C(N)=O)N(C(=O)CCCCC)C3)c1 (some centres not stated) | nt | nt | -0.1 | -6 | -1%
CCc1nn(-c2ccccc2)c2c1-c1cc(OC)c(OC)cc1C1(N2)C(=O)Nc2ccccc21 (configuration not stated) | -18 | -8 | -1.9 | 91 | nt
Cn1c(CNC(=O)c2ccc(Cl)cc2)nnc1SCC(=O)N1CCOCC1 | nt | nt | -1.4 | -8 | nt
CCOC(=O)C(NS(=O)(=O)c1ccc(C)cc1)(C(F)(F)F)P(=O)(OCC(C)C)OCC(C)C (configuration not stated) | -7 | 3 | 3.0 | 6 | 2%
COC(=O)c1ccc(/C=N\NC(=O)c2ccc(C)cc2Cl)cc1 | 24 | 9 | 1.3 | 83 | 59%
Cc1cccc(N2C(=O)NC(=O)/C(=C\c3ccc4c(c3)CCCN4Cc3ccccc3)C2=O)c1 | 18 | 15 | -3.0 | 17 | 2%
Cc1cc2nc3c(=O)n(Cc4ccccc4)c(=O)[nH]c3nc2cc1N | nt | nt | -144 | -3 | -5%
COc1ccc(CCNC(=O)COc2ccc(S(=O)(=O)NC3CCCCC3)cc2Cl)cc1OC | -24 | -21 | 2.1 | 8 | 3%
COc1ccc(C2c3ccc(O)cc3Oc3ncn4nc(-c5ccco5)nc4c32)cc1OC (configuration not stated) | nt | nt | -2.5 | -2 | -1%
CCOCCCNS(=O)(=O)c1cc(Br)cc2c1N(C(=O)C1CC1)CC2 | -13 | -1 | 6.0 | -10 | -6%
O=C(NCCN1CCOCC1)Nc1ccc(F)cc1 | nt | 6 | -0.5 | -3 | -7%
COc1ccccc1C1C(C#N)=C(N)N(c2cccnc2)C2=C1C(=O)CC(C)(C)C2 (configuration not stated) | -83 | 4 | 1.1 | -9 | -8%
COc1c(C(=O)Nc2ccc(Br)cn2)ccc2ccccc12 | nt | nt | 5.0 | 14 | nt
CC1CCC(NC(=O)CNC(=O)c2cccs2)CC1 (configuration not stated) | nt | nt | -0.4 | -15 | nt
Cc1nc(-c2ccc(S(=O)(=O)N3CCN(c4ccccc4)CC3)cc2)co1 | nt | nt | -2.4 | 1 | nt
CCSc1nnc(NC(=O)CCNS(=O)(=O)c2ccccc2F)s1 | nt | nt | -0.6 | 67 | nt
CCc1cccc(C)c1NC(=O)CSc1nc2ccncc2[nH]1 | nt | nt | 1.0 | -1 | nt
Cc1cc(-c2nc(C)c(-c3nnc(SCC(=O)Nc4ccc(Cl)cc4)n3C)s2)no1 | nt | nt | -0.6 | 0 | -5%
COC(=O)/N=C(/Cc1ccc(OC)cc1)c1ccc(OC)cc1 | nt | nt | 5.7 | 0 | nt
O=C(Cc1ccc(Cl)cc1)Nc1ccc(C(=O)N2CCCCC2)cc1 | nt | nt | 0.9 | -3 | nt
COc1ccccc1OP(=O)(O)Oc1ccccc1OC | nt | 9 | -3.4 | -6 | 0%
O=Cc1ccc(-c2ccc(F)cc2)o1 | nt | 1 | 0.7 | 87 | 87%
Cc1ccc(C)c(N(CC(=O)NN=C2CCN(C)CC2)S(=O)(=O)c2ccccc2)c1 | -16 | -10 | 0.2 | 9 | 0%
COc1ccc(N2CC(C(=O)Nc3ccc(F)cc3F)CC2=O)cc1 (configuration not stated) | -18 | 3 | 0.2 | -9 | -1%
O=C(C1CC1)N1CCc2cc(S(=O)(=O)N(CCO)Cc3ccccc3)ccc21 | -23 | 7 | -6.4 | -10 | nt
COc1ccc(/C=C2\SC(=S)N(CCCC(=O)Nc3cccc(C(=O)O)c3)C2=O)cc1OC | nt | nt | 17 | 2 | nt
COc1ccc(CCNC(=O)CSc2nc3[nH]ncc3c(=O)n2-c2ccc(C)c(Cl)c2)cc1OC | nt | 24 | -1.6 | nt | 11%
Cc1cc(SCC(=O)c2ccc(Cl)cc2)nc(=O)[nH]1 | nt | nt | 2.2 | 5 | nt
COC(=O)[C@H](C)NC(=O)Nc1cccc(C(F)(F)F)c1 | 6 | 6 | -0.1 | -10 | 0%
CCS(=O)(=O)N1N=C(c2cccc(NS(C)(=O)=O)c2)CC1c1cccs1 (configuration not stated) | nt | nt | -5.2 | 3 | nt
Oc1ccccc1N1CCN(C(=S)NCCc2ccccc2)CC1 | -35 | -2 | -1.2 | -6 | -7%
COc1ccc(NS(=O)(=O)c2cccc(NC(=O)CCC(=O)c3ccc(Cl)cc3)c2)cc1 | -43 | -5 | 5.1 | 4 | 2%
COc1ccc(Oc2nc(C(F)(F)F)nc3ccccc23)cc1 | -37 | 2 | 7.0 | -6 | 14%

Screening data: PubChem, several laboratories

An excerpt; count on the stated rates, not on these rows.
